KCNQ2 inh: KCNQ2 channel blockers in CHO-K1 cells – cell-based, FluxOR thallium flux, B-score, primary screen (AID 2156) | O88943 | 20 min; stronger effect = lower value; only compounds with negative scores are shown here; some inactives read as strong as hits | B-score at 10 µM | actives 1.1% (n = 310,000);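 active = fluorescence ratio B-score at most minus 3 library SDs, with starting brightness B-score within 2 library SDs, cut at about -5.5 in these data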
Target sequence (O88943 whole entry, looked up): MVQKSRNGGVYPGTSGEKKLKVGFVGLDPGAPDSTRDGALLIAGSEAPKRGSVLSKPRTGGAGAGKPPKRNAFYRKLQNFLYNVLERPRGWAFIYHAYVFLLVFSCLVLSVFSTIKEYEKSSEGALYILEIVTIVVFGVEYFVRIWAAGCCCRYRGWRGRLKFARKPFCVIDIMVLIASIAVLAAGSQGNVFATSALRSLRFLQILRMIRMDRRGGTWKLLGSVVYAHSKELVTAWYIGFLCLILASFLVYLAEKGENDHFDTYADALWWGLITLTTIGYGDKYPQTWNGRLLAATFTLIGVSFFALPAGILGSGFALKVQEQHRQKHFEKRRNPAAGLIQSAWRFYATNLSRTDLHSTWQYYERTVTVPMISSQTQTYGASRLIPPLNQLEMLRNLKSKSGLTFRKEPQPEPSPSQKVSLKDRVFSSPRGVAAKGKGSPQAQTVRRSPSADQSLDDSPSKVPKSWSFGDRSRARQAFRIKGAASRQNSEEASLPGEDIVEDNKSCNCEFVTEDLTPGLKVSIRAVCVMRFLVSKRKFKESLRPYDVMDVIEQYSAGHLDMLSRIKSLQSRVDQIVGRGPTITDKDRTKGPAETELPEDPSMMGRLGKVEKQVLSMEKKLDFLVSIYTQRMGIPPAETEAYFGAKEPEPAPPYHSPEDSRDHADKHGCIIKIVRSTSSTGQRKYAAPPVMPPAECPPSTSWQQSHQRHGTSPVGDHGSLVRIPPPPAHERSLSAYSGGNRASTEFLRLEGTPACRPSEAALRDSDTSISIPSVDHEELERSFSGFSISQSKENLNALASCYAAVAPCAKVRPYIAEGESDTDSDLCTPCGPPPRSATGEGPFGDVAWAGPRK
KCNQ2 inh baseline: further read-out of KCNQ2 inh, marked with its call; B-score; measured here: initial fluorescence intensity artifact check;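 brightness before thallium and not channel activity; 0 = typical well and far values either way flag optical interference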
The depositor's hits bear a star; i = inactive.

SMILES	KCNQ2 inh	KCNQ2 inh baseline
Cc1nn(-c2ccccc2)c(C)c1/C=N/NC(=O)c1ccccc1NS(=O)(=O)c1cccs1	i	1.02
CCCCOc1ccc(NC(=O)C2CC=CCC2C(=O)O)cc1 (stereo unspecified)	i	1.64
CCOc1ccccc1N1CCN(C(=O)c2c(CC)noc2C)CC1	i	-1.4
COc1cccc(N2C(=NC(=O)CCc3ccccc3)SC3CS(=O)(=O)CC32)c1 (stereo unspecified)	i	2.3
O=C(CCN1C(=O)c2ccccc2C1=O)NCCCn1ccnc1	i	1.5
CCOC(=O)C1=C(O)/C(=C/c2ccc(OCC(=O)O)c(OCC)c2)SC1=Nc1ccccc1	i	1.15
Cc1ccccc1Cn1c(=O)n(Cc2ccco2)c(=O)c2ccccc21	i	0.94
CN(Cc1ccccc1F)c1nc(-c2cccnc2)nc2ccccc12	i	-0.19
Cc1cc(C)nc(N/N=C2/CCSc3ccc(F)cc32)n1	i	1.23
O=C(Nc1ccccc1Cl)c1ccccc1	i	-0.49
CSCCC(NC(=O)c1ccccc1)C(=O)NC1CCCC1 (stereo unspecified)	i	1.8
COc1ccccc1S(=O)(=O)Cc1ccc(C(=O)N2CCN(c3cccc(Cl)c3)CC2)o1	-10.3*	0.08*
O=C(OCC#CCSc1nnc(-c2ccc([N+](=O)[O-])cc2)o1)c1cccs1	i	0.18
COc1ccccc1CNC(=O)COC(=O)c1ccc(-n2cnnn2)cc1	i	0.62
CCCn1c2ccccc2c2nnc(SCC(=O)OC)nc21	i	0.63
COc1ccc(Cl)cc1C(=O)Nn1cnc2ccccc2c1=O	i	0.91
COc1ccc2nc(Sc3c([N+](=O)[O-])nc(C)n3Cc3ccccc3)[nH]c2c1	i	-0.88
CCOC(=O)C1CCCN(C2=C(NS(=O)(=O)c3ccc(Br)cc3)C(=O)c3ccccc3C2=O)C1 (stereo unspecified)	-6.72*	-0.86*
NC(=O)CSc1nc2ccccc2c(=O)n1CCc1ccccc1	i	-0.16
O=C(Nc1ccccc1Cl)c1cccc(NC(=O)C2CCCC2)c1	i	-0.06
COc1ccc(NC(=O)Cn2c(CCC(=O)O)ccc2-c2ccc(C)cc2)cc1	i	0.72
Cc1c(Cl)cccc1NC(=S)N/N=C/c1ccccc1Cl	i	-0.04
CCOC(=O)Oc1ccc2oc(C)c(C(=O)OCCOC)c2c1	i	0.94
O=C(CSc1ccccc1)Nc1cc(S(=O)(=O)N2CCOCC2)ccc1N1CCOCC1	i	0.98
CC(NC(=O)C1c2ccccc2Oc2ccccc21)C1CCCO1 (stereo unspecified)	i	-1.78
CN1CCN(C(=O)c2cc(Oc3c(F)c(F)c(F)c(F)c3F)cc(C(=O)N3CCN(C)CC3)c2)CC1	i	-0.8
Cc1c(O)c2c(=O)n(-c3ccccc3)c(-c3ccccc3)cc2oc1=O	i	1.04
C=CCN1C(=S)CC(c2ccccc2)=Nc2ccccc21	-6.73*	-0.76*
CC(=O)N1N=C(c2ccc(Cl)cc2)CC1c1ccc([N+](=O)[O-])cc1 (stereo unspecified)	i	0.01
COc1ccc(NC(=O)C2=C(C)C(=O)OC23CCC(C)CC3)c(OC)c1 (stereo unspecified)	i	-0.28
O=C(/C=C/c1ccccc1)c1ccc2c3c(cccc13)CC2	i	2.87
COc1cc(Cl)c(C)cc1NC(=O)CSc1ccc(C)cc1	i	0.65
Cc1onc(-c2c(F)cccc2Cl)c1C(=O)Nc1cccc(S(=O)(=O)NCc2ccco2)c1	i	0.67
CCOc1ccc(C2N(c3ccc(OC)cc3)C(=O)C3CCCN32)cc1OC (stereo unspecified)	i	-0.45
Cc1ccc(NS(=O)(=O)c2cccc(C(=O)NNC(=O)c3ccco3)c2)c(C)c1	i	-1.57
O=C(NCc1ccc(F)cc1)C(=O)NCC1OCCCN1S(=O)(=O)c1cccs1 (stereo unspecified)	i	0.61
CC1(C)SC(=S)N(/N=C/c2ccccc2)C1N(O)C(=O)Nc1ccc([N+](=O)[O-])cc1 (stereo unspecified)	i	-0.19
Nc1c(-c2cccc(Cl)c2)cnc2c(-c3ccccc3)cnn12	i	0.46
O=C(NCCc1c[nH]c2ccccc12)C(=O)NCC1CCCO1 (stereo unspecified)	i	-0.08
CCOc1[nH]n(-c2ccc(Cl)cc2)c(=O)c1C=NCC(=O)OC	i	0.34
CN1/C(=C\C(=O)Nc2ccc(Br)cc2)C(C)(C)c2ccccc21	i	-0.33
O=C(c1ccccc1C(F)(F)F)N1CCN(S(=O)(=O)c2ccccc2)CC1	i	-1.38
CCCOC(=O)CSc1nnc(-c2ccccc2Cl)o1	i	-0.27
CN(C)CCCN1c2ccc([N+](=O)[O-])cc2CCc2cc([N+](=O)[O-])ccc21	i	-0.56
CSCCC(NS(=O)(=O)c1ccccc1F)C(=O)N1CC=C(c2ccccc2)CC1 (stereo unspecified)	i	1.86
c1ccc(CCc2nn3c(Cc4ccccc4)nnc3s2)cc1	i	1.15
COC(=O)C(CC(C)C)NC(=O)/C=C/c1ccccc1Cl (stereo unspecified)	i	-1.04
O=C(c1ccc(N2CCN(C(=O)c3ccccc3)CC2)cc1)c1cccc(F)c1	i	-0.7
CC(C)C(NC(=O)c1ccccc1F)C(=O)NCc1ccc(F)cc1 (stereo unspecified)	i	-3.09
Cc1c(NC(=S)NC(=O)c2ccc(Br)o2)c(=O)n(-c2ccccc2)n1C	i	-1.11
CC1(C)CC(/C=C/c2ccccc2)=Nc2ccccc2N1	i	-0.05
COC(=O)c1cc(=O)nc2sc3cc(OC)ccc3n12	i	1.25
COc1ccccc1N1CCNC(C)C1=O (stereo unspecified)	i	3.27
C#Cc1ccc([C@@H]2C=C(C(=O)N3CCN(Cc4ccccc4)CC3)O[C@H](OCC)[C@H]2CCCO)cc1	i	-1.05
CC1=C(C(=O)OC(C)C)C(c2ccc(C)o2)NC(=O)N1 (stereo unspecified)	i	1.23
C(/C=C/c1ccccn1)=C\c1ccccc1	i	1.43
Cc1ccc(-c2csc(N)n2)s1	i	-0.79
CC(C)CCNC(=O)CN(C(=O)CCC(=O)Nc1nccs1)C1CCCCC1	i	-0.61
COc1ccc(NC(=O)c2oc3ccccc3c2NC(=O)c2ccco2)c(OC)c1	i	-1.36
CS(=O)(=O)Nc1ccc(C2=NN(S(C)(=O)=O)C(c3ccc4c(c3)OCO4)C2)cc1 (stereo unspecified)	i	1.49

Continued, overlapping the part above by 5 compounds.
SMILES	KCNQ2 inh	KCNQ2 inh baseline
C(/C=C/c1ccccn1)=C\c1ccccc1	i	1.43
Cc1ccc(-c2csc(N)n2)s1	i	-0.79
CC(C)CCNC(=O)CN(C(=O)CCC(=O)Nc1nccs1)C1CCCCC1	i	-0.61
COc1ccc(NC(=O)c2oc3ccccc3c2NC(=O)c2ccco2)c(OC)c1	i	-1.36
CS(=O)(=O)Nc1ccc(C2=NN(S(C)(=O)=O)C(c3ccc4c(c3)OCO4)C2)cc1 (stereo unspecified)	i	1.49
O=C(c1c(F)cccc1F)N(C1CCCCC1)C1CCCCC1	i	0.1
Cc1cc(Cl)ccc1C(=O)C1CCCN(C(=O)c2cnsn2)C1 (stereo unspecified)	i	-0.15
COc1cccc(C(=O)NCCS(=O)(=O)N2CCCC2)c1	i	-1.4
O=C(CCc1ccncc1)N1CCCC(Nc2ccc(F)c(F)c2)C1 (stereo unspecified)	i	-0.32
Cc1c(NC(=O)COc2cccc3c2OC(C)(C)C3)c(=O)n(-c2ccccc2)n1C	i	-1.18
COc1c(C)cc(S(=O)(=O)N2CCOCC2)c(C)c1C	i	0.05
CCc1ccc(C(=O)C(C)OC(=O)Cc2n[nH]c(=O)c3ccccc23)cc1 (stereo unspecified)	i	0.58
COc1ccc(-c2cc(C(F)(F)F)nc(N3CCN(C)CC3)n2)cc1	i	2.74
CCCCOc1ccc(C2C3CN(C(=O)OCC)CC=C3C(C#N)=C(N)C2(C#N)C#N)cc1OC (stereo unspecified)	i	-0.38
CCCCOc1cccc(-c2cc(C(=O)NNC(=S)NCC)c3ccccc3n2)c1	i	0.08
COc1ccccc1OCCC(=O)NCc1ccc2c(c1)OCO2	i	-1.43
CCOc1cc(NC(=S)Nc2ccccc2OC)c(OCC)cc1NC(=O)c1ccccc1C	-5.73*	0.19*
COc1nc(-c2ccccc2)cc(-c2ccccc2)n1	i	-0.85
COc1c(C(CC(C)C)OC(C)=O)ccc2c1C(=O)OCc1cc(C)cc(O)c1O2 (stereo unspecified)	i	-1.41
CCOc1ccc(CCNC(=O)COC(=O)c2c(C)nn(-c3ccccc3)c2C)cc1OCC	i	-0.02
CCCC(=O)N=C1SC2CS(=O)(=O)CC2N1c1ccc(C(C)=O)cc1 (stereo unspecified)	i	0.65
CCOc1ccc(N2CC(C(=O)N3CCc4ccccc43)CC2=O)cc1 (stereo unspecified)	i	1.59
O=C1COc2cc(ccc2[N+](=O)[O-])Oc2ccc(cc2Cl)C(=O)CCCCO1	i	0.22
C=CCn1cc(C(=O)NCc2cccnc2)c(=O)c2cc(S(=O)(=O)N(CC)CC)ccc21	i	-0.56
O=Cc1c(NCc2ccc(Cl)cc2)c2ccccc2[nH]c1=O	i	0.04
COc1ccc(C2=NOC(C(=O)Nc3c(C)n(C)n(-c4ccccc4)c3=O)C2)cc1 (stereo unspecified)	i	0.21
COc1ccc(NC(=O)CCN2CCN(S(=O)(=O)c3ccc(Cl)cc3)CC2)cc1	i	0.72
Cc1ccccc1Nc1sc(C(=O)Nc2cccc(Cl)c2)c(N)c1C(N)=O	i	0.5
CCOc1ccc(CCNC(=O)COC(=O)c2sccc2C)cc1OCC	i	0.06
COc1ccc(C2/C(=C(\O)c3cccc(OC)c3)C(=O)C(=O)N2c2ccccn2)cc1 (stereo unspecified)	i	-1.97
O=C1CN(C(=O)C2CCC(=O)N(CCc3ccc(Cl)cc3)C2)CCN1 (stereo unspecified)	i	0.02
Cc1ccc(CNC(=O)[C@H](C)NC(=O)C2CCN(C(=O)[C@@H]3CCCN3C(=O)OC(C)(C)C)CC2)cc1	i	0.16
CN(C)c1cc(-c2ccccc2)nc(N)n1	i	-0.56
COc1cnc(SCc2ccc(Cl)cc2)nc1Cl	i	-1.47
CCOC(=O)C1=C(C)N=C2c3ccccc3C(=O)C2C1c1ccc(Cl)cc1 (stereo unspecified)	i	0.31
Cc1ccc(C(=O)C2=C(O)C(=O)N(Cc3cccnc3)C2c2ccc(Cl)cc2)o1 (stereo unspecified)	i	-0.07
COC(=O)c1ccccc1NC(=O)c1cccc(NC(=O)C(C)C)c1	i	0.56
COc1ccc(-c2noc(-c3ccc(Br)o3)n2)cc1	i	1.41
CCOc1ccc(C(C)=O)cc1CN1c2ccc(S(N)(=O)=O)cc2CC1C (stereo unspecified)	i	-0.04
O=C(Cn1ncc2c(=O)oc3ccccc3c21)NCC1COc2ccccc2O1 (stereo unspecified)	i	3.4
Cn1c(=O)c2c(nc(SCCN3CCOCC3)n2C)n(C)c1=O	i	0.75
Cc1ccc([N+](=O)[O-])c(OCC(O)CNC(C)(C)C)c1 (stereo unspecified)	i	2.09
O=C1c2ccccc2C(=O)N1CCc1nc(-c2ccc(Cl)cc2)no1	i	1.1
Cc1cc(Cl)c2oc(C(=O)N(C)Cc3ccon3)c(C)c2c1	i	-2.44
O=C(c1cccc(F)c1)N1CCN(C(=O)c2cc(-c3ccc(Cl)cc3Cl)on2)CC1	i	-0.19
CCN(CC)C(=O)c1ccc(COc2ccccc2Br)o1	i	1.36
O=C(Nc1ccc(Cl)cc1N1CCOCC1)C1CCCCC1	i	0.28
Cc1ccc(-n2c(Cc3cccs3)nnc2SCC(=O)Nc2ccc(F)c(F)c2)cc1	i	0.16
Cc1nn(C)c(C)c1S(=O)(=O)N1CCC(CO)(Cc2ccc(Cl)cc2)CC1	i	-0.75
COc1ccc(C/C(=N\O)c2ccc(OC)cc2)cc1	i	0.2
O=C(NCc1ccc2c(c1)OCO2)C1CC(=O)N(c2ccc(F)cc2)C1 (stereo unspecified)	i	0.94
Cc1nn(C(C)c2n[nH]c(=S)n2-c2ccc(F)cc2)c(C)c1[N+](=O)[O-] (stereo unspecified)	i	1.1
COc1cc(CC(=O)OCC(=O)Nc2ccc3c(c2)OCO3)cc(OC)c1OC	i	-0.81
CC(=O)c1cccc(OCc2cc(C(=O)N3CCC(N4CCCCC4)CC3)no2)c1	i	0.5
CN(/N=C/c1ccccc1Cl)c1ncc(Cl)cc1C(F)(F)F	i	-0.47
COc1ccnc2c1c(=O)n(Cc1ccc(Cl)cc1)c(=O)n2C	i	-0.32
CCOC(=O)Cc1c(C)nc(N)[nH]c1=O	i	0.58
COC(=O)CNC(=O)COC(=O)/C=C/c1ccccc1[N+](=O)[O-]	i	3.1

Filtered by structure: the compounds so far containing a furan ring, fused or not (12)
SMILES	KCNQ2 inh	KCNQ2 inh baseline
Cc1ccccc1Cn1c(=O)n(Cc2ccco2)c(=O)c2ccccc21	i	0.94
COc1ccccc1S(=O)(=O)Cc1ccc(C(=O)N2CCN(c3cccc(Cl)c3)CC2)o1	-10.3*	0.08*
CCOC(=O)Oc1ccc2oc(C)c(C(=O)OCCOC)c2c1	i	0.94
Cc1onc(-c2c(F)cccc2Cl)c1C(=O)Nc1cccc(S(=O)(=O)NCc2ccco2)c1	i	0.67
Cc1ccc(NS(=O)(=O)c2cccc(C(=O)NNC(=O)c3ccco3)c2)c(C)c1	i	-1.57
Cc1c(NC(=S)NC(=O)c2ccc(Br)o2)c(=O)n(-c2ccccc2)n1C	i	-1.11
CC1=C(C(=O)OC(C)C)C(c2ccc(C)o2)NC(=O)N1 (stereo unspecified)	i	1.23
COc1ccc(NC(=O)c2oc3ccccc3c2NC(=O)c2ccco2)c(OC)c1	i	-1.36
Cc1ccc(C(=O)C2=C(O)C(=O)N(Cc3cccnc3)C2c2ccc(Cl)cc2)o1 (stereo unspecified)	i	-0.07
COc1ccc(-c2noc(-c3ccc(Br)o3)n2)cc1	i	1.41
Cc1cc(Cl)c2oc(C(=O)N(C)Cc3ccon3)c(C)c2c1	i	-2.44
CCN(CC)C(=O)c1ccc(COc2ccccc2Br)o1	i	1.36

Not all compounds are listed, so the mix of outcomes need not match the whole.
